Screens (PubChem)
NS1 function inh: qHTS Assay for Inhibitors of Influenza NS1 Protein Function | S. cerevisiae slowed by influenza A NS1, growth recovery by OD600 | Potency, µM (series often up to 46.1 µM), without a hit: top-dose activity, positive = more growth | actives 0.4% (n = 270,000); active means well fitted rising curve with a large enough effect; inconclusive means small, poorly fitted or top-dose-only effect; inactive means no such curve, though single readings can be large or run the other way; note: nearly all actives have a fitted effect of over 50% in size
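S. cerevisiae expressing influenza A NS1, grown in glucose, washed, then diluted 1:100 into pH 6.0 -URA galactose medium with 23 nl compound. Growth recovery read as OD600; NS1-free strain serves as control.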
MARV entry inh: qHTS for inhibitors of binding or entry into cells for Marburg Virus; Marburg virus pseudotyped entry inhibition, cell reporter; control for the full effect not named in the record; about a third of the inactives were read at about 46 µM; Potency, µM (series often up to 37.8 µM), inactives show at the highest dose activity change, negative = inhibition, most hits filed as inhibitors; actives 1.8% (n = 300,000); AID 540276, 2011; active = well fitted inhibition curve with a large enough effect; inconclusive = small, poorly fitted or top-dose-only effect, or effect the other way; inactive = flat fitted curve, though single readings scatter; tested in HEK293 cells; about a fifth of its hits are not listed in these tables; note: % is set by controls: 0 for no effect and ±100 for the full control effect; luciferase read-out
RE007 growth inh: qHTS Assay for Inhibitors of the HIV-1 protein Vpr; S. pombe RE007 Vpr strain, BacTiter-Glo ATP luminescence, 24 h; control for the full effect not named in the record; Potency, µM (titrated, usually from 92.2 µM), for the others: top-dose activity change, negative = less growth; actives 0.21% (n = 360,000); active = well fitted falling curve with a large enough effect; inconclusive = small, poorly fitted or top-dose-only effect; inactive = no such curve, though single readings can be large or run the other way;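 note: % is set by controls: 0 for no effect and ±100 for the full control effect; nearly all actives have a fitted effect of over 50% in size; the assay follows cell death caused by Vpr and the record does not say whether a fall means rescue or toxicity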
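Fission yeast RE007 carrying one integrated HIV-1 vpr copy, seeded at OD 0.01 in PMG+AL medium with 23 nL pinned compound. Grown 24 h at 30 degrees; viability read by BacTiter-Glo luminescence after 5 min.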
Cruzain noTriton: qHTS Assay for Promiscuous and Specific Inhibitors of Cruzain (without detergent) | AID 1476, 2009 | purified cruzain, Z-FR-AMC fluorescence, no detergent | Potency, µM, for the others: max response, negative = inhibition, usual class: inhibitors | Cruzipain (Trypanosoma cruzi), P25779 | actives 2.3% (n = 200,000);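 note: plate controls were enzyme without inhibitor for no effect and buffer without enzyme for full effect; nearly all actives have a fitted effect of over 40% in size; top concentration of the series not given in the record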
Target sequence (P25779 123-467 limits assumed): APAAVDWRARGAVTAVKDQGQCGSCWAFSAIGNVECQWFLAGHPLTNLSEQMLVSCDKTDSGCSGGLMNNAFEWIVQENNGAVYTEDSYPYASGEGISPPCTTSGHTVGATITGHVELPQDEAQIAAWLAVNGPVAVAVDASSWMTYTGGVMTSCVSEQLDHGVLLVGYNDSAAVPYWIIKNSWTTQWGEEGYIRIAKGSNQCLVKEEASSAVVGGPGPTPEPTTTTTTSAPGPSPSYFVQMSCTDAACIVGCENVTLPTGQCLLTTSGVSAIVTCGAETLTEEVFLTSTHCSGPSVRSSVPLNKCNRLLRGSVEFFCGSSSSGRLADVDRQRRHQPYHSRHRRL
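Purified cruzain at 1.5 nM, pre-incubated 15 min with compound at room temperature in 100 mM sodium acetate pH 5.5, 5 mM DTT, 0.00005% Triton X-100. Reaction started with 2 uM Z-FR-AMC; AMC fluorescence increase over 60 s gives rate.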
LASV entry inh: qHTS for Inhibitors of binding or entry into cells for Lassa Virus. Potency, µM (series often up to 37.9 µM), without a hit: at the top dose activity change, negative = inhibition, actives largely listed as inhibitors. actives 1.2% (n = 300,000). Lassa virus pseudotype entry inhibition, cell reporter; control for the full effect not named in the record. AID 540256, 2011; active means well fitted inhibition curve with a large enough effect; inconclusive means small, poorly fitted or top-dose-only effect, or effect the other way; inactive means flat fitted curve, though single readings scatter; tested in HEK293 cells; note: % is set by controls: 0 for no effect and ±100 for the full control effect; nearly all actives have a fitted effect of over 50% in size; luciferase read-out
SARS PLpro yeast: qHTS of Yeast-based Assay for SARS-CoV PLP; AID 485353, 2010; Potency, µM (highest dose often 32.9 µM), without a hit: at the top dose activity, positive = growth rescue; actives 0.19% (n = 330,000); S. cerevisiae expressing SARS-CoV PLpro, growth rescue; control for the full effect not named in the record; active means well fitted rising curve with a large enough effect; inconclusive means small, poorly fitted or top-dose-only effect; inactive means no such curve, though single readings can be large or run the other way; note: 0% is about no effect; nearly all actives have a fitted effect of over 55% in size; growth read by luminescence after 48 h
Cruzain inh Det: qHTS Assay for Promiscuous and Specific Inhibitors of Cruzain (with detergent); Cruzipain (Trypanosoma cruzi), P25779; purified cruzain, Z-FR-AMC fluorescence, 0.01% Triton; Potency, µM, without a hit: max response, negative = inhibition, most hits filed as inhibitors; actives 0.43% (n = 200,000); AID 1478, 2009;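 note: plate controls were neutral wells for no effect and buffer without enzyme for full effect; nearly all actives have a fitted effect of over 40% in size; top concentration of the series not given in the record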
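Enzyme 1.5 nM, Z-FR-AMC 2 uM, NaOAc 100 mM pH 5.5, DTT 5 mM, Triton X-100 0.01%; 15 min RT compound preincubation; kinetic ex360/em450, 60 s delta.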
2A StopGo: High Throughput Screening for Foot and Mouth Disease Virus Antivirals; actives 1.2% (n = 410,000); Potency, µM (highest dose often 57.9 µM), inactives show at the top dose signal change, negative = less light; human cells with a luciferase reporter of 2A StopGo recoding; control for the full effect not named in the record; AID 1159524, 2015; active = well fitted falling curve with a large enough effect; inconclusive = small, poorly fitted or top-dose-only effect; inactive = no such curve, though single readings can be large or run the other way; tested in HEK293T cells; note: % is set by controls: 0 for no effect and ±100 for the full control effect; nearly all actives have a fitted effect of over 45% in size; luciferase light after 4 h
* = called active by the depositor; ? = inconclusive; · = no result given; [ ] = dose if it differs, or a comment. Unless noted, calls come from the whole dose curve; as a rule, active = well fitted curve in the direction sought with a large enough effect; inconclusive = small, poorly fitted or top-dose-only effect, or another doubt; inactive = no such curve, though single readings can be large; an effect the other way counts as inactive or inconclusive. Potency is the fitted concentration of half-maximal effect.

Values run as follows: NS1 function inh	MARV entry inh	RE007 growth inh	Cruzain noTriton	LASV entry inh	SARS PLpro yeast	Cruzain inh Det	2A StopGo
O=C(CC1(O)C(=O)Nc2cc(Cl)cc(Cl)c21)c1ccccc1O (stereo not drawn)
  -37%	?	-6%	-3%	-18%	6%	-8.7%	-18%
CCOCCn1c(N2CCN(c3ccc(OC)cc3)CC2)nc2c1c(=O)n(C)c(=O)n2C
  -10%	4%	33%	?	2%	-1%	0.8%	-22%
Cc1sc2c(c1C)c(=O)n(-c1ccc(Cl)cc1)c(=O)n2Cc1cc(=O)n2cc(Br)ccc2n1
  ·	9%[46.1 µM]	·	-5%	-25%[46.1 µM]	·	-0.5%	-6%
CCOc1ccc(NC(=O)c2c(NC(=O)CN3CCCC3)sc3c2CCC3)cc1
  0%	7%	6%	·	24%	-1%	·	-21%
COc1cccc(C2=NN(C(=O)c3ccc(C)o3)C(O)(C(F)(F)F)C2)c1 (stereo not drawn)
  1%	?	6%	·	?	-1%	·	-29%
CCn1nnnc1-c1ccc(OC)c(S(=O)(=O)Nc2ccc(C)c(C)c2)c1
  -8%	-3%	-13%	-5%	8%	0%	-1.5%	74%[activator]
Cc1nnc(SCc2cc(=O)[nH]c(=S)[nH]2)s1
  3%	?	17%	·	-2%[46.1 µM]	0%	·	-2%
CCn1c(SCC(=O)NC2CCCc3ccccc32)nnc1-c1cccs1 (stereo not drawn)
  6%	10%	21%	5%	-11%	7%	4.0%	-18%
CC(CN1CCOCC1)OC(=O)Cc1ccccc1 (stereo not drawn)
  ·	-12%[46.1 µM]	-21%	·	5%	0%	·	5%
Cc1ccc(CNC(=O)c2nc(SCc3ccc(F)cc3)ncc2Cl)cc1
  ·	-3%[46.1 µM]	·	-12%	-28%[46.1 µM]	·	0.7%	-10%
CC(C)(C)S(=O)(=O)c1cnc(N2CCCC2)nc1N
  2%	-5%	10%	·	0%	-1%	·	0%
CCOC(=O)c1nnc(-c2ccc(C)cc2)nc1N1CCSCC1
  -11%	-23%[46.1 µM]	-7%	·	25%	-2%	·	30%
COC(=O)c1cc(S(=O)(=O)NCc2ccc(F)cc2)cn1C
  -10%	·	2%	·	·	5%	·	54%[activator]
Cn1c(CC(=O)Nc2ccc(Cl)c(Cl)c2)n[nH]c1=S
  ·	1%[46.1 µM]	18%	·	-9%[46.1 µM]	1%	·	-8%
COc1ccccc1N1CCN(c2nc3ccccn3c(=O)c2C=O)CC1
  -3%	-22%	10%	-1%	?	-1%	-4.2%	43%[activator]
CCC(=O)N1CCc2cc(Br)cc(S(=O)(=O)CCC(=O)N3CCN(c4ccccc4F)CC3)c21
  ·	-4%[46.1 µM]	·	1%	5%[46.1 µM]	·	0.0%	16%
COc1ccc(C(=O)c2coc(-c3ccccc3C(=O)O)c2C(=O)O)cc1
  -15%	17%	-10%	6%	-1%	14%	0.1%	0%
CCc1cc2c(-c3ccccc3)cc(=O)oc2cc1OCC(=O)NCC1CCC(C(=O)O)CC1 (stereo not drawn)
  4%	·	2%	·	·	-2%	·	-20%
C/C(=N\NC(=O)c1cccc2ccccc12)c1ccccn1
  -31%	?	?	·	7.9µM*	2%	·	-6%
Oc1cccc(Nc2ccccc2)c1
  ·	·	3%	-1%	·	0%	1.6%	-15%

(list continues)
Values run as follows: NS1 function inh	MARV entry inh	RE007 growth inh	Cruzain noTriton	LASV entry inh	SARS PLpro yeast	Cruzain inh Det	2A StopGo
O=C(Sc1nnc(-c2ccccc2)o1)N1c2ccccc2Sc2ccccc21
  3%	·	-8%	?	·	-28%	-3.4%	?
O=C(c1cc(Cl)ccc1O)N1CCN(S(=O)(=O)c2cccs2)CC1
  ·	-4%	4%	·	29%[46.1 µM]	0%	·	59%[activator]
Cc1ccc(NC(=O)CCn2nnc3ccccc32)cc1
  -3%	?	-8%	·	24%	1%	·	24%
O=C(O)c1ccc(NC(=O)c2ccco2)c(NC(=O)c2ccco2)c1
  -5%	-2%[46.1 µM]	-2%	·	?	1%	·	-10%
COCCCNc1ccc([N+](=O)[O-])cc1C(=O)Nc1cccc(C)n1
  ·	-14%[46.1 µM]	-14%	·	5%	-2%	·	-23%
CCCSc1ncc(Cl)c(C(=O)Nc2c(C(=O)c3ccc(F)cc3)oc3ccccc23)n1
  ·	-2%[46.1 µM]	·	-6%	11%[46.1 µM]	·	-1.0%	-8%
O=c1c2ccccc2nc(SCc2ccccc2)n1CC1CCCO1 (stereo not drawn)
  -37%	·	7%	·	·	-1%	·	-16%
O=C(CSc1nnc2ccc3ccccc3n12)N1CCOCC1
  ?	?	14%	-18%	?	3%	-5.4%	27%
COC(=O)c1cccc(CSc2nc3ccccc3[nH]2)c1
  -25%	?	-20%	-6%	?	-25%	-6.8%	-23%
O=S1(=O)CC2SC(=S)N(c3ccccc3)C2C1 (stereo not drawn)
  5%	·	3%	·	·	2%	·	2%
CC(C)(C)c1ccccc1OCC(=O)NCCCn1ccnc1
  10%	?	-22%	·	·	3%	·	-17%
O=C(NCCc1c[nH]c2ccccc12)C1CCN(c2nnc(N3CCCC3=O)s2)CC1
  10%	-3%	-15%	3%	?	1%	0.1%	-13%
CCOc1ccccc1-n1nnnc1SCc1nc2ccccc2s1
  -14%	?	-15%	2%	5%	-8%	-7.7%	14%
CCN(CC)c1ccc(NC(=O)Cn2cc3c(n2)CCC(C)C3)c(C)c1 (stereo not drawn)
  ?	·	7%	-4%	·	-3%	4.0%	?
O=C(O)Cc1sc(-c2cccnc2)nc1-c1ccc(Br)cc1
  ·	?	-6%	·	-17%[46.1 µM]	5%	·	5%
O=C(NCC1CC1)Nc1cccc(C(F)(F)F)c1
  -9%	2%[46.1 µM]	-4%	·	-17%[46.1 µM]	-4%	·	25%
CC(C)CCn1c(=O)c2sccc2n2c(CCCC(=O)NC3CCC(C)CC3)nnc12 (stereo not drawn)
  ·	·	·	-3%	14%[46.1 µM]	·	0.8%	-4%
Cn1c(=O)c2c(nc(NCCNC(=O)c3ccco3)n2Cc2ccccc2F)n(C)c1=O
  -3%	-2%[46.1 µM]	3%	·	-1%	-2%	·	?
Cc1ccccc1-n1nnnc1Sc1nnnn1-c1ccccc1
  -16%	?	6%	2%	?	-18%	-13%	8.9µM*
COc1ccc(-c2nn(-c3ccccc3)cc2/C=C/C(=O)OCC(=O)Nc2cccc(C#N)c2)cc1
  1%	?	-8%	32µM*	-29%	?	-0.4%	-28%

(continued)
Values run as follows: NS1 function inh	MARV entry inh	RE007 growth inh	Cruzain noTriton	LASV entry inh	SARS PLpro yeast	Cruzain inh Det	2A StopGo
Cc1[nH]c(=O)c(C#N)c(C)c1CSc1ncccn1
  ·	0%	-1%	·	23%	·	·	-9%
CC(C)[C@H](NC(=O)c1ccccc1)C(=O)OCC(=O)N1CCCCCC1
  11%	?	13%	6%	3%	-14%	1.6%	-7%
COc1ccc(NC(=O)C2=C(C)Nc3ncnn3C2c2sccc2C)cc1 (stereo not drawn)
  ·	·	·	-6%	-5%[46.1 µM]	·	-0.6%	12%
O=C(CN1C(=O)CSC1=O)c1ccccc1
  -6%	-22%	-2%	0%	7%	9%	-1.8%	-15%
CC(C)CN1CCC(=O)N(CCN=[N+]=[N-])CC1
  13%	·	1%	·	·	-6%	·	-20%
CCC(C)NC(=S)N1CCN(C)CC1 (stereo not drawn)
  ·	-6%[46.1 µM]	0%	·	0%	-5%	·	4%
Cc1nn(-c2ccccc2)c(N)c1N=Nc1ccccc1
  -32%	?	?	-4%	?	-72%	-12%	-10%
COC(=O)c1cn(NC(=O)c2cccc(F)c2)c(=O)c2ccccc12
  -33%	-7%	-1%	-6%	-13%	6%	-4.6%	-7%
CCOc1ccc(CC(=O)NCCc2csc(-c3ccc(C(F)(F)F)cc3)n2)cc1
  ·	·	·	0%	10%[46.1 µM]	·	-2.3%	?
CCn1cc(S(=O)(=O)Nc2cccnc2)cn1
  17%	-10%[46.1 µM]	-7%	·	-1%[46.1 µM]	-5%	·	9%
O=C1NC(=O)N(c2ccc(F)cc2)C(=O)/C1=C/c1ccc(N2CCOCC2)cc1
  ·	25%[46.1 µM]	3%	·	·	0%	·	-17%
O=C(CSc1nccn1-c1ccc(F)cc1)NCc1ccc(F)cc1
  ·	18%	-5%	·	-2%	-6%	·	-2%
CCCCn1c(C(C)NC(=O)CCC)nc2ccccc21 (stereo not drawn)
  -17%	·	5%	0%	·	1%	3.2%	-26%
CCCCC(O)(c1ccccc1)C(CN1CCOCC1)c1ccccc1 (stereo not drawn)
  -1%	·	-13%	·	·	-3%	·	?
O=C(O)c1cccc(NC(=O)c2ccccc2NC(=O)c2cccc([N+](=O)[O-])c2)c1
  27%	·	0%	·	·	8%	·	7%
CSc1cccc(NC(=S)Nc2cc(C)ccc2C)c1
  1%	10%[46.1 µM]	-1%	·	?	0%	·	0%
COc1ccc(/C=C/C(=O)O)cc1S(=O)(=O)N1CCc2ccccc2C1
  7%	4%[46.1 µM]	3%	·	-2%[46.1 µM]	0%	·	-16%
O=C(O)/C=C/C(=O)NC1CCS(=O)(=O)C1 (stereo not drawn)
  ?	-12%	2%	-10%	?	14%	0.4%	-5%
CCOc1ccc(CNC23CN4CN(CN(C4)C2)C3)cc1
  -1%	2%	-15%	-10%	-8%	2%	3.6%	·
COc1cc(C2C3=C(COC3=O)Oc3cc4c(cc32)OCO4)ccc1O (stereo not drawn)
  ·	-24%	-19%	·	-27%[46.1 µM]	·	·	-23%
Cc1c(Br)cc(C(=O)NCCCN2CCOCC2)c(C)c1C
  -5%	-1%	-21%	0%	9%	2%	1.2%	-5%
CCN(CC)c1ccc(CN(C(=O)Cc2coc3ccc(C)cc23)C2CCS(=O)(=O)C2)cc1 (stereo not drawn)
  ·	-15%[46.1 µM]	·	-6%	?	·	-6.9%	-26%
